Screening data deposited in PubChem by several laboratories.
T cruzi repl = inhibitors of intracellular T. cruzi growth, primary screen, luminescence, NIH3T3 host cells; T. cruzi beta-gal in NIH3T3, 90 h; inhibition, % (no concentration beside the values); 300,000 compounds, 1.4% hits;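 active = mean inhibition across valid replicates above about 55%, limit read from the data; inconclusive = mean below that limit but half or more replicates reach it; inactive = mean below it, under half of replicates reach it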;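 also: signal also drops with host cell toxicity which is not excluded here; 0% = plate median of DMSO wells and 100% = zero luminescence signal; higher percent means less beta-gal luminescence so fewer parasites; stock transfer was 50 nL into about 50 µL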
Ecoli rRNA inh = reduced GFP signal of wild-type E. coli, primary screen, bacterial rRNA inhibitor project, GFP/RFP fluorescence, OD600, single point. 350,000 compounds, 1.6% hits. GFP signal change (wild-type ribosome), % (test concentration not listed). E. coli WT GFP vs humanized-ribosome RFP mutants, 24 h; stronger effect = lower value; DMSO median 0, no signal -100;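 active = significant combined selectivity score with lowered wild-type GFP, culture density cut under 30%, mutant RFP and density less affected; inactive = any of these conditions unmet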; also: one replicate is shown; some compounds called inactive have numbers as strong as hits
RanGTP-Imp inh = inhibitors of RanGTP-importin-beta interaction, primary screen, biochemical, FRET, CFP-Ran, YFP-importin-beta, homogeneous; Ran GTPase (GTP-bound) - importin-beta complex; cell-free CFP-Ran/YFP-importin-beta FRET ratio; inhibition, % (concentration not given with the values); 300,000 compounds, 1.1% hits;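 active = most replicates above 15%; inconclusive = exactly half above 15%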;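 also: 0% = DMSO wells and 100% = Ran loaded with GDP instead of GTP; wells of about 40 µL received 100 nL stock; the first replicate is given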
Beta cell apopt = inhibitors of cytokine-induced beta cell apoptosis, primary screen, luminescence | INS-1E cytokine-induced death, ATP luminescence, 48 h; percent of positive-control rescue, neutral wells zero | protection from apoptosis, % (test concentration not listed) | 300,000 compounds, 0.8% hits | AID 435005, 2010;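 active = all replicates at 75% or more, or half of them and the mean; inconclusive = half reach 75% but not the mean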;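 also: 0% = cytokine-treated negative control wells and 100% = positive control rescue; higher means more ATP so stronger rescue from cytokine killing; wells of about 40 µL received 100 nL stock; the first replicate is given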
AF4-AF9 inh = inhibitors of AF4 peptide binding to AF9, primary screen, biochemical, AlphaScreen, biotin-AF4 peptide, FLAG-AF9, single point | Protein AF-9 (Homo sapiens), P42568 | inhibition, % at 10 µM | 350,000 compounds, 0.47% hits | AID 651704, 2012;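 active = every replicate reaching a set inhibition limit, whatever the replicate mean, cut at about 25% in these data; inconclusive = mean inhibition reaches that limit but some replicates miss it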;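 also: 0% = plate neutral control median and 100% = total signal loss; the record names both 10 and 1 µM as test concentration; the first replicate is given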
Target sequence (P42568 whole entry, looked up): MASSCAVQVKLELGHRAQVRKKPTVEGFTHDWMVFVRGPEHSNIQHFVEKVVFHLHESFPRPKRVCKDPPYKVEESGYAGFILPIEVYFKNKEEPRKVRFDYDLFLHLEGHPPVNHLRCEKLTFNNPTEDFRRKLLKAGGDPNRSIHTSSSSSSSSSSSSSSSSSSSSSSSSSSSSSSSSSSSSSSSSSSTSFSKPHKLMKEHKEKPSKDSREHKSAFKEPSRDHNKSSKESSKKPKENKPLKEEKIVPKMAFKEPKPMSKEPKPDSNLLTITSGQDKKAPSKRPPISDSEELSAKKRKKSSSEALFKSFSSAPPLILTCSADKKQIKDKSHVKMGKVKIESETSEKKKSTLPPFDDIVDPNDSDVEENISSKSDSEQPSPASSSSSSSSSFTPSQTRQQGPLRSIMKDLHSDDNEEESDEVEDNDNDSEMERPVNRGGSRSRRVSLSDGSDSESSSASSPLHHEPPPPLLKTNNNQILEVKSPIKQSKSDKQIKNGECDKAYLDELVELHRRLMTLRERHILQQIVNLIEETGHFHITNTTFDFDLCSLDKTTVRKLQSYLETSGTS
Vif A3G = inhibitors of Vif binding to APOBEC3G peptide, primary screen, biochemical, TR-FRET, GST-Vif 1-94, biotin-A3G peptide, dose response retest (AID 1117319). Virion infectivity factor (Human immunodeficiency virus type 1 group M subtype B (isolate …. TR-FRET GST-Vif / biotin-A3G peptide binding; higher % means a stronger effect; test concentration not given here; strong numbers were not always called active. one-dose inhibition, %; IC50 in µM for titrated hits. 260,000 compounds, 0.57% hits;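 active = above the screen mean plus three standard deviations and confirmed in dose response; inconclusive = results disagree or hit not tested in dose response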;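 also: Vif residues 1-94 fused to GST binding biotinylated APOBEC3G peptide 110-148; 0% = full assay without inhibitor and 100% = GST in place of GST-Vif; retest series ran down from 100 µM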
Calb FLC = C. albicans growth inhibition with fluconazole, primary screen, CaCi-2 strain, Alamar Blue fluorescence | AID 1979, 2009 | 300,000 compounds, 0.57% hits | growth inhibition, % (concentration not given with the values) | C. albicans CaCi-2 (fluconazole-resistant clinical isolate) + fluconazole, 48 h;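 active = most replicates above 75%; inconclusive = exactly half above 75%; inactive = most below 75%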;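 also: all wells also contain fluconazole at 8 µg/ml as a sub-toxic cotreatment; 0% = median of DMSO wells and 100% = median of geldanamycin control wells; wells of about 8 µL received 7.5 nL stock; the first replicate is given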
Bfl-1 A1 inh = caspase 3/7 activation in MEF A1-2A-BIM cells, primary screen, A1 inhibitor project, cell-based, luminescence, HTS; 330,000 compounds, 0.066% hits; Caspase-Glo 3/7 luminescence, 3 h; percent of clofoctol response, vehicle zero; caspase activation, % (no concentration beside the values);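 active = over half of replicate activation scores above 10%, or exactly half above 10 with the replicate mean above 10; inconclusive = replicate mean below 10 yet half the replicates above 10; inactive = over half of replicates below 10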;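 also: wells of about 30 µL received 50 nL stock; many hits fall short of the cut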
Ecoli rRNA inh OD600 = second read-out of Ecoli rRNA inh, no call of its own (marks repeat the call); OD600 change, %; measured here: OD600 growth;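 optical density of the mix in the first replicate; 0 = DMSO median and -100 = no signal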
Ecoli rRNA inh RFP = second read-out of Ecoli rRNA inh, no call of its own (marks repeat the call); RFP signal change, %; measured here: RFP humanized mutant strains;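 first replicate; 0 = DMSO median and -100 = no signal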
* marks the source's active call; other numbers are inactive results; u = inconclusive; x = not tested or not shown.

SMILES	T cruzi repl	Ecoli rRNA inh	Ecoli rRNA inh OD600	Ecoli rRNA inh RFP	RanGTP-Imp inh	Beta cell apopt	AF4-AF9 inh	Vif A3G	Calb FLC	Bfl-1 A1 inh
CCOC(=O)c1cnc(SC2CC(=O)N(c3ccccc3)C2=O)nc1N (stereo unspecified)	4	x	x	x	-3.5	-6	x	-3%	2	0.6
CCOc1cccc(-c2nnc(SCC(=O)Nc3cc(C)ccc3OC)n2N)c1	10	x	x	x	4.1	-10	x	3%	-8	-0.4
CC(=NCCc1c(C)[nH]c2ccc(OC(F)(F)F)cc12)C1=C(O)CC(c2ccccc2)CC1=O (stereo unspecified)	44	3	18	1.9	-0.1	10	-2.2	-3%	-22	0.8
CCCc1c(C(=O)N/N=C/c2sccc2C)nnn1-c1nonc1N	0	6	13	-1.5	0.0	0	0.9	x	-6	1.3
CCC/C=C(\CCC)C(NC(=O)CCc1ccccc1)c1ccc(C(F)(F)F)cc1 (stereo unspecified)	9	x	x	x	0.0	0	x	x	-3	0.9
CCCNc1nc2c(c(=O)n(C)c(=O)n2C)n1CCc1ccccc1	-17	x	x	x	1.5	35	x	5%	-18	0.5
O=C(CCNS(=O)(=O)c1cccc2nsnc12)NCCC1=CCCCC1	-5	x	x	x	1.7	4	x	1%	-1	1.9
CC(=O)Nc1ccc2nc(C)n(Cc3ccc(Cl)cc3)c(=O)c2c1	9	x	x	x	-1.4	-8	x	x	5	0.4
O=C(NCc1ccco1)c1ccc2c(c1)C(=O)N(Cc1ccccc1)C2=O	-12	x	x	x	-5.0	-1	x	8%	-11	0.2
CC(O)c1ccc(OCCN(C)c2ccccn2)cc1 (stereo unspecified)	5	8	9	-0.3	u	2	-3.4	-4%	-4	-4.1
CCc1nnc(NC(=O)CN2CCN(c3nc(-c4ccccc4)cs3)CC2)s1	14	x	x	x	-3.4	3	x	1%	90*	-0.3
O=C(Nc1ccc(N2CCOCC2)c(S(=O)(=O)Nc2ccc(Cl)cc2)c1)c1cnccn1	1	2	10	23	5.6	-6	3.2	x	14	1.8
COc1ccc(C2CC(c3ccc(F)cc3)Nc3nc(N)nn32)cc1 (stereo unspecified)	30	0	-3	-2.9	-5.0	-4	2.6	-4%	-4	0.3
CC/C(=N\NC(=O)OC)c1ccc(OC(F)F)cc1	7	12	9	2.9	-1.3	x	-1.9	4%	37	0.7
COCC(=O)Nc1ncc(S(=O)(=O)c2ccc([N+](=O)[O-])cc2)s1	27	8	4	2.6	-4.9	-2	-2.1	11%	29	1.1
Cc1nc(C(F)(F)F)c(C(=O)NC(=O)Nc2ccccc2)s1	-15	x	x	x	-3.2	3	x	0%	-10	-0.2
Cc1ccc(/C=N/NC(=O)CSc2nc3ccccc3n2Cc2ccccc2)o1	13	x	x	x	-5.9	4	x	x	0	0.0
COc1ccccc1CCNC(=O)CCCn1nc(C)c2c(C)n(-c3ccc(C)cc3)nc2c1=O	1	2	3	0.2	-0.3	4	3.3	x	1	0.2
CCN(CC(=O)NCc1ccc(F)cc1)C(=O)CN1CCN(c2ccc(OC)cc2)CC1	14	9	9	-1.0	12	2	-14	x	-12	0.3
CCc1ccc(C(=O)N/N=C/c2cccc3ccccc23)nc1	11	-3	1	4.5	-0.5	7	2.5	-2%	-6	-6.0
COc1ccc(-n2c(SCC(=O)N3CCOCC3)nnc2C(C)N2CCCCC2)cc1 (stereo unspecified)	-12	x	x	x	-3.3	1	x	-3%	7	0.4
COC(=O)[C@@H](NC(=O)c1cc(COc2cncc(Cl)c2)on1)c1ccccc1	-10	-1	1	1.0	0.9	-6	-0.3	x	11	0.0
CCN(c1ccccc1)S(=O)(=O)c1ccc(OC)c(OC)c1	-15	-18*	-11*	4.9*	0.5	-5	1.2	12%	20	-0.1
CN1CCN(C(=S)NC(=O)c2cccc([N+](=O)[O-])c2)CC1	-11	-7	5	-3.7	1.8	2	-7.2	1%	12	0.1
O=C1C2CC=CCC2C(=O)N1c1ccc(OCC(O)Cn2nnc3ccccc32)cc1 (stereo unspecified)	-15	x	x	x	-0.7	5	x	3%	-11	-0.3

Single records, as listed above. Screens in order: T cruzi repl	Ecoli rRNA inh	Ecoli rRNA inh OD600	Ecoli rRNA inh RFP	RanGTP-Imp inh	Beta cell apopt	AF4-AF9 inh	Vif A3G	Calb FLC	Bfl-1 A1 inh
Entry for `Cc1ccc(/C=N/NC(=O)CSc2nc3ccccc3n2Cc2ccccc2)o1` = 13	x	x	x	-5.9	4	x	x	0	0.0
Entry for `COC(=O)[C@@H](NC(=O)c1cc(COc2cncc(Cl)c2)on1)c1ccccc1` = -10	-1	1	1.0	0.9	-6	-0.3	x	11	0.0
Entry for `CCc1nnc(NC(=O)CN2CCN(c3nc(-c4ccccc4)cs3)CC2)s1` = 14	x	x	x	-3.4	3	x	1%	90*	-0.3
Entry for `CCN(c1ccccc1)S(=O)(=O)c1ccc(OC)c(OC)c1` = -15	-18*	-11*	4.9*	0.5	-5	1.2	12%	20	-0.1
Entry for `O=C(Nc1ccc(N2CCOCC2)c(S(=O)(=O)Nc2ccc(Cl)cc2)c1)c1cnccn1` = 1	2	10	23	5.6	-6	3.2	x	14	1.8

Later entries:
SMILES	T cruzi repl	Ecoli rRNA inh	Ecoli rRNA inh OD600	Ecoli rRNA inh RFP	RanGTP-Imp inh	Beta cell apopt	AF4-AF9 inh	Vif A3G	Calb FLC	Bfl-1 A1 inh
O=C(O)CCSc1nc2ccc(Br)cc2[nH]1	3	x	x	x	3.6	-7	x	9%	1	1.2
COc1ccc2[nH]c(=O)c(CN(CCN(C)C)C(=O)NCc3ccccc3)cc2c1	-4	x	x	x	1.1	-5	x	-1%	-2	0.3
C[C@H](O)[C@H](O)[C@H]1CNc2nc(N)[nH]c(=O)c2N1	-11	19	17	0.3	4.1	0	-0.2	x	-7	-2.5
Cc1cc(NC(=O)c2ccccc2)n(C(C)(C)C)n1	-26	20	6	0.2	3.2	3	x	-4%	-7	0.2
O=C(NNC(=O)C12CC3CC(CC(C3)C1)C2)c1ccccc1[N+](=O)[O-]	-11	-1	0	2.0	-1.1	-5	6.8	x	3	-0.5
Cc1ccc(C(=O)N2CCOCC2)c(F)c1F	-8	13	15	0.6	1.1	-4	-0.2	7%	-9	2.4
CCOC(=O)NC(NC(=S)Nc1ccccc1[N+](=O)[O-])C(Cl)(Cl)Cl (stereo unspecified)	6	x	x	x	-0.3	1	x	5%	3	0.5
Cc1ccc(C2CCN(C(=O)Nc3ccc(F)cc3)C2)cc1 (stereo unspecified)	1	-13	-8	-4.9	8.7	8	3.7	u	5	-2.4
O=c1c2sccc2nc(SCc2ccc([N+](=O)[O-])cc2)n1Cc1ccccn1	15	3	-9	-7.1	6.6	11	15	11%	-11	-0.1
Cc1nc2cc(NC(=O)CSc3nc4c(C)cccc4cc3C#N)ccc2s1	-3	x	x	x	1.6	-2	x	-72%	2	1.4
CCC1COC(c2cccn2Cc2ccc(Cl)cc2)=N1 (stereo unspecified)	-9	-22*	-17*	4.2*	-1.2	-2	1.9	x	10	0.6
CCn1c(C)nc2cc(C(=O)NNC(=S)Nc3ccc(F)cc3)ccc21	-1	-5	5	1.8	-2.3	0	-0.4	-5%	11	0.6
COc1cc(OC)cc(-c2c(C#Cc3ccsc3)c3cc(-c4ccc(CN5CCOCC5)cc4)ccc3n2C)c1	x	4	11	-6.9	x	2	-0.4	x	x	1.8
CCCSc1ccc([C@@H]2[C@H]3C(=O)N(CC)C(=O)[C@H]3[C@]3(C(=O)OC)CCCN23)cc1OC	x	3	-3	10	x	7	-1.3	x	x	-0.1
CCN(CC(=O)NCc1ccc(F)cc1)C(=O)c1ccc(Cl)cc1	-10	4	8	-7.6	-5.1	2	-5.2	-16%	0	0.1
CCOC(=O)Cn1c(=O)c(F)cn(Cc2ccc(OC)c([N+](=O)[O-])c2)c1=O	-9	4	7	-0.5	-2.0	x	9.4	x	-2	0.4
COc1ccc(N2C(=O)C(O)C2c2ccc(C)cc2)cc1 (stereo unspecified)	1	3	12	0.2	1.2	4	2.2	3%	3	1.6
CCOC(=O)c1ccc(S(=O)(=O)NNc2ccc(C(F)(F)F)cn2)cc1	x	2	-3	3.4	x	-2	0.2	x	x	-1.2
O=C(C[n+]1cccc(CNC(=O)c2ccc(OC(F)F)cc2)c1)Nc1cc(C(F)(F)F)ccc1Cl	-7	x	x	x	1.4	x	x	x	3	0.4
CCn1c(/C=C/c2c(C)[nH]c3ccccc23)nc2ccccc2c1=O	-1	9	13	2.4	-26	2	2.8	x	1	0.7
NS(=O)(=O)c1cccc(NC(=O)COC(=O)/C=C/c2nc3ccccc3s2)c1	x	7	8	12	x	1	0.9	-8%	x	-0.1
Cc1ccc([N+](=O)[O-])cc1NC(=O)Cc1cccs1	-13	5	6	0.9	5.1	-6	-7.2	u	-12	0.8
CCOc1ccc(S(=O)(=O)N(C)CC(=O)N2CCN(CC)CC2)cc1	6	4	11	1.0	u	-1	-7.5	x	4	-0.1
Cc1ccc(NC(=O)CSc2nc3ccccc3c(=O)n2Cc2cccs2)cc1	-9	4	2	2.5	-1.5	-2	-35	x	-13	-0.5
Cc1cccc(C(=O)NNC(=S)NC(=O)c2ccccc2)c1	-4	-53	-77	-16	-1.4	17	-0.3	x	1	-1.3
CCOc1nc(N2CCOCC2)nc(C)c1[N+](=O)[O-]	3	-10	-10	3.9	-2.4	1	-2.4	0%	-1	-0.4
COc1ccc(C(=O)CSc2nnc(-c3cccs3)n2-c2ccccc2)cc1	1	x	x	x	-0.3	28	x	-12%	-1	-0.7

Sorted by number of heavy atoms (lowest first): part of the list above.
SMILES	T cruzi repl	Ecoli rRNA inh	Ecoli rRNA inh OD600	Ecoli rRNA inh RFP	RanGTP-Imp inh	Beta cell apopt	AF4-AF9 inh	Vif A3G	Calb FLC	Bfl-1 A1 inh
C[C@H](O)[C@H](O)[C@H]1CNc2nc(N)[nH]c(=O)c2N1	-11	19	17	0.3	4.1	0	-0.2	x	-7	-2.5
CCC1COC(c2cccn2Cc2ccc(Cl)cc2)=N1 (stereo unspecified)	-9	-22*	-17*	4.2*	-1.2	-2	1.9	x	10	0.6
Cc1nc2cc(NC(=O)CSc3nc4c(C)cccc4cc3C#N)ccc2s1	-3	x	x	x	1.6	-2	x	-72%	2	1.4

Some of the compounds tested. The share of hits here may be higher or lower than overall.
